Assay outcomes as filed in PubChem.
D2 ag – Beta-Arrestin HTS for Positive Allosteric Modulators of the Human D2 Dopamine Receptor: Agonists; D(2) dopamine receptor (Homo sapiens), P14416; actives 0.084% (n = 360,000); AID 624465, 2012; activation, % (concentration not given with the values); DiscoveRx PathHunter D2 beta-arrestin, luminescence, 90 min; 100% = 57 uM dopamine signal; in the data active = activation above about 40%; inconclusive = about 15% to 40%; inactive = below about 15%; also: compound concentration not given in the record; the text of the record calls up to 30% inactive
Target sequence (P14416 whole entry, looked up): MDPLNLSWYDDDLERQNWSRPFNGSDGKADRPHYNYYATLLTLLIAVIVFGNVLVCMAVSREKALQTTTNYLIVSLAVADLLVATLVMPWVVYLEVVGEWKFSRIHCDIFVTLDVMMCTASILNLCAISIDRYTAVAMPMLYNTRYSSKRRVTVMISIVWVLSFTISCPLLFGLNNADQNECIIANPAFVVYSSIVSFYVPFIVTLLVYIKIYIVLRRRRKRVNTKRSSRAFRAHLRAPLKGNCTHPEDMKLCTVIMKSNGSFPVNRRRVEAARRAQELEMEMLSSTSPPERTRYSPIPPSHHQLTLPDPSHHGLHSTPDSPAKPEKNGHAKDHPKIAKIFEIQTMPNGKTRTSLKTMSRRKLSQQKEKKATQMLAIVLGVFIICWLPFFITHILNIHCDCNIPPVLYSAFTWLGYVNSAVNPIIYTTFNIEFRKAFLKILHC
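DiscoveRx PathHunter D2 beta-arrestin cells (2,100/well) attached overnight, then compound-stimulated 90 min at 37 C in HBSS/10 mM HEPES/0.1% Tween-20 buffer; beta-galactosidase complementation read by luminescence after 1 h at ambient temperature. Dopamine 57 uM final (EC100) as control.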
Six1-Eya2 blk – qHTS Assay for Inhibitors of the Six1/Eya2 Interaction; actives 0.56% (n = 360,000); activity change, % (no concentration beside the values); AlphaScreen GST-Six1/His-Eya2 binding, biochemical; active compounds read low; control for the full effect not named in the record; AID 651725, 2012; in the data active = activity change below about -65%; inconclusive = about -30% to -65%; inactive = above about -30%; also: % is scaled to controls: 0 for no effect and ±100 for the full control effect
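Compounds are tested against tagged Six1 and Eya2 proteins bridged by glutathione donor and nickel acceptor beads; after a one-hour incubation at 37 °C without light, AlphaScreen emission is recorded.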
TRPML1 ag – qHTS for Agonists of the Human Mucolipin Transient Receptor Potential 1 (TRPML1); Mucolipin-1 (Homo sapiens), Q9GZU1; TRPML1-expressing cells, Ca2+ dye fluorescence, FDSS; host cell line not named in the record; reference of the full effect not given here; activation, % (concentration not given with the values); actives 0.12% (n = 410,000); AID 624414, 2012; in the data active = activation above about 50%; inconclusive = about 30% to 50%; inactive = below about 30%; also: 0% is about no effect; the text of the record puts the active cut at 80%
Target sequence (Q9GZU1 whole entry, looked up): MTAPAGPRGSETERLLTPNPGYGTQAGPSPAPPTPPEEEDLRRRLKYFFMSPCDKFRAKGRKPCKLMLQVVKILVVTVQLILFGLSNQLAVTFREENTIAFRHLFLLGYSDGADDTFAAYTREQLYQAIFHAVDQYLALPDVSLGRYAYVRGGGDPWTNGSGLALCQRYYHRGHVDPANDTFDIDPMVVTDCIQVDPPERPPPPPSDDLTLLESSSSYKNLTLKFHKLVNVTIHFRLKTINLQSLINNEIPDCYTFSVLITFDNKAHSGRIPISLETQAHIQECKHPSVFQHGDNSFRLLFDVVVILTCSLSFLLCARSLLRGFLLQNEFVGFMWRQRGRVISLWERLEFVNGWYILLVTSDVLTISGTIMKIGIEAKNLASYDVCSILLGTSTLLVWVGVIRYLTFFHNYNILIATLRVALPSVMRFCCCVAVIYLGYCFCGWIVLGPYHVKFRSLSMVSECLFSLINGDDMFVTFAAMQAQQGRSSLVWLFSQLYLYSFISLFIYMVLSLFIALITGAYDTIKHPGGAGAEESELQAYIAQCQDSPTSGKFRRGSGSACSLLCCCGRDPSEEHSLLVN
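Tet-induced TRPML1-DL cells, 1,500 per well, cultured overnight, were loaded with a no-wash Ca2+ dye for 45–90 min. Calcium fluorescence was recorded on the FDSS for 110 s after compound addition, before the EC80 agonist (4 uM 54-4) was added.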
TRPML1 inh – qHTS for Inhibitors of the Human Mucolipin Transient Receptor Potential 1 (TRPML1); AID 624415, 2012; activity change, negative = inhibition, % (concentration not given with the values); actives 0.02% (n = 390,000); Mucolipin-1 (Homo sapiens), Q9GZU1; TRPML1-inducible cells, Ca2+ dye fluorescence, FDSS; active compounds read low; inhibition of EC80 agonist-evoked calcium signal; in the data active means activity change below about -50%; inconclusive means about -30% to -50%; inactive means above about -30%;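 also: stimulus is agonist 54-4 at its EC80 concentration; % is scaled to controls: 0 for no effect and ±100 for the full control effect; the text of the record puts the active cut at -80%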
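Calcium fluorescence in TRPML1-DL cells induced overnight with Tet: a 110 s read after compound pin addition, then a 110 s antagonist read after challenge with 54-4 at 4 uM final (EC80).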
D2 PAM – Beta-Arrestin HTS for Positive Allosteric Modulators of the Human D2 Dopamine Receptor: Potentiators; D(2) dopamine receptor (Homo sapiens), P14416; DiscoveRx D2 beta-arrestin cells, luminescence, 90 min; 100% = 57 uM dopamine signal; potentiation, % (no concentration beside the values); actives 0.23% (n = 360,000); AID 624464, 2012; active = potentiation of 50% or more; inconclusive = 30% to 50%; inactive = 30% or less;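 also: compound concentration not given in the record; tested on top of an EC20 dose of dopamine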
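PathHunter beta-arrestin assay in DiscoveRx D2 cells. Compounds were added with an EC20 of dopamine (50 nM final) for 90 min at 37 deg C. Luminescence was read 1 h after detection reagent, with 57 uM dopamine as the EC100 control.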
PINK1 expr mod – A Quantitative High throughput Screen to Identify Chemical Modulators of PINK1 Expression; PINK1 immunofluorescence, high-content cytometry, 24 h; Potency, µM (series often up to 76.6 µM), without a hit: top-dose activation (PINK1 increase), actives largely listed as activators; actives 0.2% (n = 410,000); active = well fitted activation curve with a large enough effect; inconclusive = small, poorly fitted or top-dose-only effect; inactive = flat fitted curve, though single readings scatter; cell line not stated here;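 also: potency is read from the fitted curve at half-maximal effect; % of control where 0% means no effect; nearly all actives have a fitted effect of over 65% in size; a mitochondrial uncoupler was the plate control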
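Stable cell line, 250 cells/well, 12 h attachment; compounds pinned at 5 concentrations, 24 h; CCCP control. Fixed with nuclear dye, primary antibodies 12 h at 10 degrees C, secondary plus cell stain; laser-scanning cytometer read.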
* = called active by the depositor; ? = inconclusive; nt = not tested or not shown; & = joins results of further samples; [ ] = dose if it differs, or a comment.

molecule,D2 ag,Six1-Eya2 blk,TRPML1 ag,TRPML1 inh,D2 PAM,PINK1 expr mod
O=C(COC(=O)CN1C(=O)c2cccc([N+](=O)[O-])c2C1=O)NC1CCS(=O)(=O)C1 (stereo unspecified),0.2,-4,0.6,-8,-3,-0.1%
Cc1noc(C)c1NC(=O)N(C)C[C@H]1Oc2ccc(NC(=O)Nc3ccc4c(c3)OCO4)cc2C(=O)N([C@H](C)CO)C[C@@H]1C,-0.6,-4,-0.9,-5,-2,-0.1%
CC(SCc1ccccc1)C(=O)N/N=C/c1cc2c(cc1Br)OCO2 (stereo unspecified),-3.7,-1,7.3,37,2,-2.8%
Cn1c(Oc2ccncc2)nc2cc(-c3ccsc3)sc2c1=O,-5.6,-1,-0.4,nt,-10,-0.2%
COc1ccccc1OCCNC(=O)c1cc(SC)ccc1Cl,-0.6,1,2.9,3,-17,0.8%
Cc1ccc(-c2noc(COC(=O)c3ccco3)n2)cc1,-2.0,14,2.1,-18,2,-0.6%
CCCNC(=O)c1nc(C)n(-c2cc(Cl)ccc2Cl)n1,-2.0,0,2.3,21,-2,-1.6%
COc1ccccc1/C=N/NC(=S)Nc1cccnc1,-6.8,-5,1.0,-7,-15,11%
CN(C(=O)COC(=O)CSc1ccccc1)c1c(N)n(Cc2ccccc2)c(=O)[nH]c1=O,-3.4,5,0.0,-13,-9,1.0%
COC(=O)c1cn(CCOc2ccc(C)cc2)c2ccccc12,-0.7,14,0.8,0,-3,6.5%
Cc1cc(C)n(-c2ccc(C(=O)OCC(=O)Nc3ccc(S(N)(=O)=O)cc3)cc2)n1,-1.2,6,0.0,-5,-11,-0.1%
Cc1cc(-c2ccc(C)c(S(=O)(=O)NCCCN(Cc3ccccc3)C(C)C)c2)on1,-6.9,-2,1.4,-3,-22,1.2%
CCOc1ccc(NC(=S)NS(=O)(=O)c2cc(Br)ccc2OCC)cc1,-8.2,-3,-0.7,-1,-23,1.6%
CC(C)(C)c1ccc(/C=N/OCC(=O)NCc2ccc(F)cc2)cc1,-2.7,-1,3.3,-4,-7,14%
COCCn1cc(C(=O)c2ccccc2OCC(=O)Nc2cc(C)on2)cc(C#N)c1=O,-2.2,-4,-1.1,11,-2,-2.0%
CCOC(=O)[C@]12CCCC=C1N(Cc1ccco1)C(=O)[C@H](CC(=O)NCCC(C)C)C2,nt,-3,-0.9,nt,nt,1.1%
COc1cccc(-n2ccn(CC(=O)NCCc3ccccc3)c(=O)c2=O)c1,-2.1,2,1.5,-7,-3,2.1%
O=C(c1ccc(F)cc1)N1CCC2(CC1)NCCc1[nH]cnc12,-4.3,1,0.2,42,-12,-1.1%
COc1cccc(CNC(=O)c2ccc(NC(=O)C3CCCO3)cc2)c1 (stereo unspecified),-2.2,2,-0.2,-3,3,0.0%
CCOc1ccc(Br)cc1C1C(C(=O)OC)=C(N)Oc2cc(N(C)C)ccc21 (stereo unspecified),-0.1,-27,1.2,-11,-3,3.5%

Given with values under each structure: entries from further up.
Values run as follows: D2 ag, Six1-Eya2 blk, TRPML1 ag, TRPML1 inh, D2 PAM, PINK1 expr mod
COc1cccc(-n2ccn(CC(=O)NCCc3ccccc3)c(=O)c2=O)c1
  -2.1, 2, 1.5, -7, -3, 2.1%
O=C(c1ccc(F)cc1)N1CCC2(CC1)NCCc1[nH]cnc12
  -4.3, 1, 0.2, 42, -12, -1.1%
COc1cccc(CNC(=O)c2ccc(NC(=O)C3CCCO3)cc2)c1 (stereo unspecified)
  -2.2, 2, -0.2, -3, 3, 0.0%
CCOc1ccc(Br)cc1C1C(C(=O)OC)=C(N)Oc2cc(N(C)C)ccc21 (stereo unspecified)
  -0.1, -27, 1.2, -11, -3, 3.5%

Later entries.
molecule,D2 ag,Six1-Eya2 blk,TRPML1 ag,TRPML1 inh,D2 PAM,PINK1 expr mod
O=C(NCc1cccc(C(F)(F)F)c1)c1ccc2sc(C3=C[C@@H](O)[C@@H](O)[C@@H](CO)O3)nc2c1,5.2,2,0.0,nt,-5,0.0%
COc1cc(NC(=O)c2cc(C)no2)c(OC)cc1Cl,-4.0,2,nt,nt,-4,1.4%
CCCCOc1ccc(C(=O)N2CC(C)OC(C)C2)cc1 (stereo unspecified),-0.3,-1,-0.6,14,17,10%[38.3 µM]
COc1ccccc1OCc1cc(C(=O)N(C)CCC2CCOCC2)no1,-1.6,5,-0.4,16,-9,0.6%
O=C(Cn1cncn1)c1ccc(Cl)cc1,2.0,2,-0.3,-2,15,1.0%
O=S(=O)(c1ccc(F)cc1)N1CCCC(CO)C1 (stereo unspecified),1.7,4,-0.7,-8,-6,1.1%
COc1ccccc1NC(=O)c1cc(N)cc(C(=O)Nc2ccccc2OC)c1,-0.7,-6,4.6,0,-5,1.0%
C=C(C)C(=O)Nc1cccc(C2=NOC3(C2)C[C@@H](C(N)=O)N(C(=O)C(=C)C)C3)c1 (stereo partly specified),-1.0,-3,-0.5,61,-2,0.9%
CCN(CC)C(=O)Sc1cccc2cccnc12,2.9,1,0.1,-7,1,nt
CCOc1ccc(Cl)cc1CNc1nnnn1CC,-4.7,-2,nt,nt,-15,1.2%
COc1ccc(-c2nc3cc(NC(=O)COc4ccc(C)c(C)c4)ccc3o2)cc1,nt,nt,1.6,-20,nt,1.9%
Cc1ccc(NC(=O)CSc2nc3ccc(NC(=O)c4ccco4)cc3s2)cc1,nt,nt,0.7,-28,nt,5.2%
COc1cc2c(cc1OC)CN(Cc1ccc(C)cc1)CC2,-0.1,-16,0.1,-15,-17,-0.6%
CC1=C(C(=O)OCCCBr)C(c2ccc3c(c2)OCO3)NC(=O)N1 (stereo unspecified),-2.0,8,-0.5,2,0,3.3%
CCOC(=O)c1ccc(NC(=O)C(CC)CC)cc1,-0.6,9,-1.0,15,1,1.0%
COC(=O)CCCC1=CC2=CC(=O)C(C)(OC(=O)c3cccs3)C(=O)C2=CN1c1cccc(C#N)c1 (stereo unspecified),0.6,-5,0.6,-3,11,0.8%
O=C(NC1CCSC1=O)C1CC(=O)N(c2ccc(F)cc2)C1 (stereo unspecified),-5.1,0,-0.5,4,-5,3.3%
COc1ccccc1Cc1c(-c2cccc(Cl)c2)nc2ccc(C)cn12,-5.8,-5,1.8,21,-8,?
O=C(Nc1nccs1)c1ccc(S(=O)(=O)NCC2CCCCC2)cc1,2.2,-2,0.9,25,3,14%[38.3 µM]
COc1ccccc1NC(=O)Cn1c(CCC(=O)O)ccc1-c1ccc(C)cc1,0.8,-6,-0.7,3,-8,0.6%
CC1CCCN(CCCNC(=O)c2cn(C)c3ccc(S(=O)(=O)N(C)C4CCCCC4)cc3c2=O)C1 (stereo unspecified),-1.2,0,-0.6&-0.5,18&0,-17,0.8%&1.1%
CCOC1CCCC(n2cnc3c(=S)nc[nH]c32)O1 (stereo unspecified),-3.2,3,-0.5,11,-9,4.9%
CN(C)c1cccc(C(=O)N2CCC(n3nccc3NC(=O)C3CCOC3)CC2)c1 (stereo unspecified),-0.5,-2,-0.6,0,0,-1.1%
Cc1nn(C(C)C(=O)N2CCCC2)c(=O)c2nn(-c3ccccc3)c(C)c12 (stereo unspecified),-0.1,-4,0.3,6,-31,0.4%
CCn1c(=NC(=O)c2ccc(S(=O)(=O)N3CCOCC3)cc2)sc2cccc(OC)c21,1.8,18,0.2,15,-13,0.1%
CCOc1ccc(C(=O)C(C)OC(=O)Cn2[nH]c(=O)c3ccccc3c2=O)cc1 (stereo unspecified),-2.3,23,-0.5,3,-1,-0.8%
O=C(O)CC(c1cccc(C(F)(F)F)c1)N1CCS(=O)(=O)CC1 (stereo unspecified),-3.3,8,-0.6,-11,-3,5.1%
C[C@H](NC(=O)c1[nH]cnc1C(=O)Nc1ccccc1F)c1ccccc1,-1.8,-2,nt,nt,nt,15%
COc1ccc(-n2nc(C(=O)NCC(=O)NCc3ccco3)c3ccccc3c2=O)cc1Cl,-3.3,-4,-1.0,5,-18,-17%[38.3 µM]
O=C(Nc1nc2ccccc2s1)C1CCCO1 (stereo unspecified),-0.5,-2,-0.8,7,2,5.8%[38.3 µM]
CC(=O)Nc1ccc(C2=NNC(=Nc3cccc(S(=O)(=O)N(C)C)c3)SC2)cc1,6.9,?,0.2,-26,0,?
O=C(NCc1cccnc1)C(=O)NCC(c1ccco1)N1CCN(c2ccccc2)CC1 (stereo unspecified),?,-4,1.1,-2,8,0.8%
Cc1ccc(C)c(OCC(=O)NC(Cc2c[nH]c3ccccc23)C(=O)O)c1 (stereo unspecified),1.6,-15,-0.3,-1,-2,1.2%
Cc1ccc(C(=O)OCC(=O)N2CCC(C)CC2)cc1S(=O)(=O)N1CCCCC1,-3.3,0,-0.8,1,15,1.3%
OCCCc1nc2n(n1)C(c1ccccc1)C=C(c1ccccc1)N2 (stereo unspecified),3.5,-5,12,-3,6,-0.1%
CCN(C(=O)CSc1cccc[n+]1[O-])C1CCCCC1,-2.8,9,-1.1,-11,-2,3.2%
CN(Cc1nccn1C)C(=O)CC1C(=O)NCCN1Cc1ccccc1C(F)(F)F (stereo unspecified),-3.2,-3,0.3,38,-3,2.0%
COc1ccc(CC(=O)NCCS(=O)(=O)N2CCN(c3ccccc3)CC2)cc1OC,0.3,4,-0.4,14,-4,0.9%
C/C(=N\Nc1ccc(Cl)c(Cl)c1)c1ccc(-n2ccnc2)cc1,2.3,-16,1.1,69,21,4.3%
CCOC(=O)N1CCN(c2c(N3CCOCC3)c(=O)c2=O)CC1,-5.3,10,-0.2,11,-6,-0.7%
O=C(Nc1c2c(nn1-c1ccccc1)CS(=O)C2)c1ccc(Br)o1 (stereo unspecified),-0.4,-12,1.2,-9,-8,-0.2%
CCC(C)[C@H]1CNCCN1CCCc1cc(OC)c(OC)c(OC)c1 (stereo partly specified),0.7,5,-0.3,-19,-7,0.4%
O=C(O)c1sccc1OCc1ccccc1,1.4,4,0.6,-12,-4,-0.1%
CN(C(=O)COn1nnc2ccc(S(=O)(=O)N3CCOCC3)cc21)c1ccccc1,-2.6,5,-0.4,33,-2,1.1%
C/C(=N\Nc1ccc([N+](=O)[O-])cc1)c1ccco1,-18,6,12,24,-22,0.6%
CCCOC(c1ccccc1)(c1ccc(C(F)(F)F)cc1)C(Oc1nc(C)cc(C)n1)C(=O)O (stereo unspecified),3.1,-5,nt,nt,-3,-0.8%
